TRPML1 agonist: human mucolipin-1 channel agonism; Q9GZU1; TRPML1-expressing cells, Ca2+ dye fluorescence, FDSS; host cell line not named in the record; reference of the full effect not given here; activation, % (test concentration not listed); 410,000 tested, 0.12% active; in the data active = activation above about 50%; inconclusive = about 30% to 50%; inactive = below about 30%; also: 0% is about no effect; the text of the record puts the active cut at 80%
Target sequence (Q9GZU1 whole entry, looked up): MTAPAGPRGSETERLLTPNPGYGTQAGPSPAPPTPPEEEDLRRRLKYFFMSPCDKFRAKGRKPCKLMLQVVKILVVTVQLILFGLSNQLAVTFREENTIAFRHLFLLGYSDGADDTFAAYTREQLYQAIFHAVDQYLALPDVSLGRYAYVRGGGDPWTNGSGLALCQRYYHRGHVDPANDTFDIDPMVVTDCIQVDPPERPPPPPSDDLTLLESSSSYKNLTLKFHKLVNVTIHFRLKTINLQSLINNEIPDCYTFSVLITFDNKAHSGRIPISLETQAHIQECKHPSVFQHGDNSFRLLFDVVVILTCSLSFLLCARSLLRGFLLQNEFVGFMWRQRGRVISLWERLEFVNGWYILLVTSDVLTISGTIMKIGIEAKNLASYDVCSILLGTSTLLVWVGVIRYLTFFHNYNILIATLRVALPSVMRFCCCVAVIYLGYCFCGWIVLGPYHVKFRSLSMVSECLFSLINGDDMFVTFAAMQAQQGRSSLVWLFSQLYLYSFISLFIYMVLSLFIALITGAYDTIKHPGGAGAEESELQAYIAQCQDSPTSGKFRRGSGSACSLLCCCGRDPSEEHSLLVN
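Kinetic FDSS Ca2+ read in Tet-induced TRPML1-DL cells (ABD Ca8 dye plus quencher, 45-90 min RT loading): baseline, then compound, then 110 s agonist window; EC80 agonist 54-4 at 4uM final added afterwards for a 110 s antagonist window.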
TRPML1 inh: blocks the human TRPML1 channel; Q9GZU1; TRPML1-inducible cells, Ca2+ dye fluorescence, FDSS; stronger effect = lower value; inhibition of EC80 agonist-evoked calcium signal; activity change, negative = inhibition, % (test concentration not listed); 390,000 tested, 0.02% active; in the data active means activity change below about -50%; inconclusive means about -30% to -50%; inactive means above about -30%;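 also: stimulus is agonist 54-4 at its EC80 concentration; % is scaled to controls: 0 for no effect and ±100 for the full control effect; compound concentration not given in the record; the text of the record puts the active cut at -80%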
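TRPML1-DL cells, Tet-induced overnight (~16 h, 37 °C) at 1,500 cells/well, were loaded with Ca8 no-wash dye plus quencher for 45-90 min at room temperature. Compounds were pinned during FDSS kinetic reading; agonist 54-4 at EC80 (4 uM final) then added.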
PINK1 expr mod: modulators of PINK1 expression; Potency, µM (series often up to 76.6 µM), without a hit: at the top dose activation (PINK1 increase), hits mostly activators; 410,000 tested, 0.2% active; PINK1 immunofluorescence, high-content cytometry, 24 h; active = well fitted activation curve with a large enough effect; inconclusive = small, poorly fitted or top-dose-only effect; inactive = flat fitted curve, though single readings scatter; cell line not stated here;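 also: potency is read from the fitted curve at half-maximal effect; % of control where 0% means no effect; nearly all actives have a fitted effect of over 65% in size; a mitochondrial uncoupler was the plate control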
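A stable cell line was treated with compounds at 5 concentrations for 24 hours, with CCCP as control. PINK1 levels and mitochondrial localization were measured by immunofluorescence with mitochondrial, cell and nuclear markers after fixation, read by laser-scanning cytometry.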
D2 PAM: positive allosteric modulators of human D2 dopamine receptor; potentiation, % (test concentration not listed); DiscoveRx D2 beta-arrestin cells, luminescence, 90 min; 100% = 57 uM dopamine signal; AID 624464; P14416; 360,000 tested, 0.23% active; active = potentiation of 50% or more; inconclusive = 30% to 50%; inactive = 30% or less;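 also: compound concentration not given in the record; tested on top of an EC20 dose of dopamine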
Target sequence (P14416 whole entry, looked up): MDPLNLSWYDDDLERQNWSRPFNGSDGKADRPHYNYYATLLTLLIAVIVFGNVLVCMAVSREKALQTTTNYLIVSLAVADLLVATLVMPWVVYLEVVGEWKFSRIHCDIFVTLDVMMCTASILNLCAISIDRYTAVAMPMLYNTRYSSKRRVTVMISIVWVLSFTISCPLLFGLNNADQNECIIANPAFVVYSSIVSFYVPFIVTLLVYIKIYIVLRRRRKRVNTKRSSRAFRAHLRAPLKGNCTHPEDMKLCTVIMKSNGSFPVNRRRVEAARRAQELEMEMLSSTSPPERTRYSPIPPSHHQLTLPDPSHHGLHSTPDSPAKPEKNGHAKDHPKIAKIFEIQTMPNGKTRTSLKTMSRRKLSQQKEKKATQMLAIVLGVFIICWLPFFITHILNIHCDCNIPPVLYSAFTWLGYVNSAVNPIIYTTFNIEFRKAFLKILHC
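D2 cells co-treated with compound plus 50 nM dopamine (EC20) for 90 min at 37 deg C to detect potentiation. Beta-arrestin recruitment was read as enzyme-fragment luminescence after 1 h at ambient temperature. Full response was set by 57 uM dopamine.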
D2 agonist: agonists of human D2 dopamine receptor (beta-arrestin); 360,000 tested, 0.084% active; AID 624465; P14416; DiscoveRx PathHunter D2 beta-arrestin, luminescence, 90 min; 100% = 57 uM dopamine signal; activation, % (concentration not given with the values); in the data active = activation above about 40%; inconclusive = about 15% to 40%; inactive = below about 15%; also: compound concentration not given in the record; the text of the record calls up to 30% inactive
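Agonist mode: compounds alone added to overnight-plated D2 PathHunter cells for 90 min at 37 C, with 57 uM final dopamine (EC100) defining full response. Beta-arrestin recruitment detected by chemiluminescent reagent, read after 1 h at ambient temperature.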
Six1-Eya2 inh: blocks human Six1 binding to Eya2; AlphaScreen GST-Six1/His-Eya2 binding, biochemical; stronger effect = lower value; control for the full effect not named in the record; activity change, % (no concentration beside the values); 360,000 tested, 0.56% active; Q15475+O00167; in the data active = activity change below about -65%; inconclusive = about -30% to -65%; inactive = above about -30%; also: % is scaled to controls: 0 for no effect and ±100 for the full control effect; compound concentration not given in the record
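Six1/Eya2 binding was read as AlphaScreen signal after compounds were pinned into GST-Six1 plus His-tagged Eya2 (5X stock 250/500 nM) in pH 8.0 Tris/NaCl/TCEP buffer, beads added, then incubated 1 h, 37 C, dark.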
* marks the source's active call; other numbers are inactive results; ? = inconclusive; . = not tested or not shown; & = joins results of further samples; [ ] = dose if it differs, or a comment.

No. | smiles | TRPML1 agonist | PINK1 expr mod | TRPML1 inh | Six1-Eya2 inh | D2 PAM | D2 agonist
1 | CCOC(=O)C1CCCN(CCC(=O)Nc2cccc(C)c2)C1 (stereo unspecified) | 0.7&-0.9 | -1.6%&1.0% | 11&-2 | -6 | -20 | 1.9
2 | Oc1ccc(Cl)cc1CNCc1ccc(Cl)nc1 | 4.5 | -0.6% | 9 | 7 | -27 | 0.5
3 | Cn1c(=O)c2c(SCc3cccnc3)nc(CC(C)(C)C)nc2n(C)c1=O | 1.1 | 2.7% | 1 | 2 | -4 | -0.3
4 | Cc1ccc(S(=O)(=O)N(CC(=O)NC2CC2)c2ccc(C)c(Cl)c2)cc1 | 0.4 | -0.8% | 12 | -3 | -15 | -2.0
5 | Cc1ccccc1CN(C)C1CCN(C)CC1 | 0.7 | 1.6% | -21 | 0 | -1 | 2.5
6 | COc1ccc(OCc2nc3c4c(-c5ccccc5)c(-c5ccccc5)oc4ncn3n2)cc1 | 0.7 | 2.3% | -8 | . | . | .
7 | COc1ccc2c(c1)C(=NO)c1cc(OC)ccc1-2 | 2.4 | 1.4% | 1 | -16 | -2 | 0.0
8 | O=C(O)CC(c1ccc(Cl)cc1)N1C(=O)CCC1=O (stereo unspecified) | -0.5 | -0.6% | 0 | -2 | -2 | -5.6
9 | O=C(CSc1ccc2nnc(-c3ccncc3)n2n1)Nc1ccc2c(c1)OCCO2 | 0.1 | 2.6% | 13 | -25 | -14 | 6.2
10 | CC(NC(=O)NC12CC3CC(CC(C3)C1)C2)c1ccc2c(c1)OCO2 (stereo unspecified) | 0.3 | 0.9% | -9 | -1 | -10 | 1.2
11 | O=C(NNc1nc(-c2ccccc2)cs1)c1ccc(F)cc1 | 0.4 | 0.7% | -7 | 11 | 0 | 0.2
12 | Cc1nn(C)c(=O)n1N(C)c1ncc(C(F)(F)F)cc1Cl | -0.1 | -0.8% | 11 | -14 | -7 | -0.9
13 | NS(=O)(=O)c1ccc(CCNc2ncnc3sccc23)cc1 | 0.8 | -1.4% | 19 | 2 | 3 | -1.8
14 | CN(C(=O)N1CCN(S(=O)(=O)c2ccccc2)CC1)c1ccccc1 | 0.8 | 0.3% | -7 | 6 | -7 | -18
15 | O=C(c1cc2c(cc1Br)OCCCO2)N1CCCCC1 | 0.0 | 1.2% | 7 | -2 | 9 | -0.2
16 | CCOC(=O)c1cc(C)n(-n2cnnc2)c1C | -0.5 | 1.5%[38.3 µM] | -2 | -2 | -6 | -1.4
17 | O=C(CN1C(=O)NC2(CCCCCCC2)C1=O)Nc1c(Cl)cccc1Cl | 0.5 | 3.5% | -2 | 0 | -7 | -2.3
18 | COc1ccccc1-c1oc2ccccc2c1C#CC1(O)CCCCC1 | 1.9 | 13% | 5 | 2 | 0 | -3.9
19 | Cc1nc2ccccc2n1Cc1ccccc1Br | 0.1 | 1.7% | -6 | 0 | -2 | 2.6
20 | Cc1nn(CC(=O)NCc2ccc(-n3cccn3)cc2)c(C)c1[N+](=O)[O-] | 0.8 | 2.6% | 8 | -5 | 2 | 2.1
21 | CC1CN(C(=O)N2CCC(C(=O)NC3CCCCCC3)CC2)c2ccccc2O1 (stereo unspecified) | -0.6 | -1.6% | -23 | . | . | .
22 | CCCOc1ccc(C(=O)Nc2ccc(N3CCN(C(C)=O)CC3)cc2)cc1 | -0.7 | -3.9% | 0 | -3 | -1 | 1.0
23 | COc1ccccc1N1CCN(S(=O)(=O)c2ccc3c(c2)CC(C)N3C(C)=O)CC1 (stereo unspecified) | 1.2 | 1.8% | -4 | -3 | -8 | -1.1
24 | CC(C)(C)c1ccc(C(=O)N2CCC(c3noc(-c4ccc(S(=O)(=O)N5CCCC5)cc4)n3)CC2)cc1 | 0.0 | 1.4% | -10 | . | . | .
25 | COc1cc([N+](=O)[O-])ccc1NC(=O)Cc1ccc(C)cc1 | 2.1 | -1.2% | 11 | -4 | -8 | -1.1
26 | COc1cc(NC(=O)CN2CCN(C(=O)c3ccco3)CC2)c(C)cc1[N+](=O)[O-] | 0.1 | 1.5% | 18 | 15 | -9 | -3.4
27 | COc1cc(OC)c(C2C3=C(CCCC3=O)Nc3nc4ccccc4n32)cc1OC (stereo unspecified) | -1.5 | 3.4% | 1 | 7 | -7 | -1.5
28 | Cc1nn(C)c(C)c1CN(C)C(=O)C1(C)CC1(Br)Br (stereo unspecified) | 0.6 | -0.2% | 63 | 6 | 0 | 5.6
29 | CCOC(=O)c1c(CC(C)C)csc1NC(=O)COC(=O)c1cc(OC)c(OC)cc1[N+](=O)[O-] | -0.6 | 6.7% | -2 | 22 | -1 | -3.9
30 | CC(C)(c1ccccc1)c1ccc(OCCN2CCCC2)cc1 | 0.8 | 9.5% | 3 | -6 | -25 | -7.5
31 | CC1CCN(C(=O)CCc2nnc3ccc(NCCCN4CCCC4=O)nn23)CC1 | -0.6 | 0.7% | -6 | -5 | 9 | -0.4
32 | CN(Cc1ccccc1)S(=O)(=O)c1ccc(OCC(=O)NCc2ccncc2)cc1 | 1.2 | -0.4% | 8 | 6 | -3 | -0.3
33 | Cc1onc(-c2ccccc2)c1C(=O)N/N=C/c1ccc(Br)cc1 | -0.9 | 1.7% | 7 | -6 | 8 | 6.1
34 | CC(=O)/C(N)=N/Nc1cccc(Cl)c1 | -0.2 | 1.7% | -22 | -21 | ? | ?
35 | COc1ccc(Cl)cc1NC(=S)N(Cc1ccc(C(=O)O)cc1)Cc1ccc(OC)c(OC)c1 | 0.3 | 1.9% | 11 | 5 | -2 | 1.9
36 | Fc1cccc2sc(Nc3nnc(-c4ccccc4)o3)nc12 | 0.0 | 4.0% | 2 | -5 | -22 | -5.5
37 | Cc1cccc(C(=O)N/C(=C\c2ccco2)C(=O)N2CCCC2)c1 | 3.7 | -1.1% | 24 | -3 | -1 | -0.4
38 | COCCOC(=O)c1c(C)oc2ccc(O)c(CN3CCC(C)CC3)c12 | 0.5 | -1.5%[38.3 µM] | 9 | 2 | -14 | 1.2
39 | Cc1ccc2c(c1)N(CC(=O)N1CCCC1)C(=O)C(C)O2 (stereo unspecified) | -0.8 | 2.3% | -6 | 5 | -10 | 1.2
40 | CCc1[nH]c(C)c(C(C)=O)c1C | 0.8 | 0.0% | -3 | -2 | -17 | -1.6
41 | COc1ccc(C2CC(=O)n3nc(C45CC6CC(CC(C6)C4)C5)nc3S2)cc1OC (stereo unspecified) | 0.9 | -0.4% | -7 | 7 | -11 | -1.8
42 | C[C@H](CO)N1C[C@H](C)[C@@H](CN(C)C(=O)C2CC2)OCc2cnnn2CCCC1=O | -0.3 | 0.2% | 14 | 1 | -3 | -1.7
43 | CC(C)(CNS(=O)(=O)c1ccc2ccccc2c1)N1CCOCC1 | -0.5 | 0.7% | -15 | 23 | -14 | -5.1
44 | COc1ccc(CN(C)C(=O)c2ccc(NS(=O)(=O)c3ccc(F)cc3)cc2)c(OC)c1 | 0.6 | 11% | -10 | -2 | -11 | -5.2
45 | COc1ccc(-n2c(-c3ccccc3)nc(=S)c3c2CCCC3)cc1 | 1.5 | -1.4% | ? | -1 | 9 | -2.1
46 | CCc1cccc(Nc2c([N+](=O)[O-])cc(C(=O)N3CC(=O)Nc4ccccc43)cc2[N+](=O)[O-])c1 | 2.6 | -1.9% | 19 | -9 | 2 | ?
47 | Cc1ccc(S(=O)(=O)c2nc(-c3cccs3)oc2N2CCC(C)CC2)cc1 | -0.4 | 1.6% | 22 | . | . | .
48 | C/C=C(/C)C(=O)Nc1cccc(C2=NOC3(C2)C[C@@H](C(N)=O)N(C(=O)CCCCC)C3)c1 (stereo partly specified) | 0.1 | -0.6% | -1 | 6 | -1 | 1.4
49 | Cc1cc(S(N)(=O)=O)c(N)c(S(N)(=O)=O)c1 | 1.0 | 2.3% | -20 | 3 | -44 | -6.3
50 | Cc1ccc(N(CC(=O)NCc2ccco2)C(=O)CCC(=O)Nc2ccccn2)c(C)c1 | -0.3 | 0.9% | -7 | -15 | -15 | -1.3
51 | CC1(C)CC(=NOC(=O)c2ccccc2)CC(C)(C)N1 | -0.1 | 2.3%[38.3 µM] | 6 | 4 | -1 | 1.4
52 | CC1CN(C(=O)CCC(=O)NCc2cccs2)c2cc(Cl)ccc2O1 (stereo unspecified) | 1.5 | 0.8% | 5 | . | . | .
53 | NC(=O)C1CCN(CC(O)CSc2ccccc2)CC1 (stereo unspecified) | 1.0 | -1.1% | 15 | 8 | -6 | -4.0
54 | Cc1cccc(NC(=O)CCNS(=O)(=O)c2cccc3nsnc23)c1C | -0.4&-0.5 | 0.2%&0.6% | 12&-9 | 8 | -8 | -3.7
55 | Cn1nc(Cc2n[nH]c(=S)n2C)c2ccccc2c1=O | 0.4 | 1.3% | 10 | 4 | -11 | -5.1
56 | CCCCNS(=O)(=O)c1ccc(NS(=O)(=O)c2c(C)cc(C)cc2C)cc1 | 0.2 | 16%[38.3 µM] | -17 | -1 | 8 | 4.6
57 | CC1=Nc2nc(N3CCCCCC3)c(C#N)c3c4c(nc(c23)N1)N(c1ccc2ccccc2c1)C(=O)C4 | 0.0 | 1.1% | -14 | -17 | -7 | -3.2
58 | COc1ccc(C(=O)Oc2cc(-c3ccc4c(c3)OCO4)cc(=O)c3c(C)oc(C)c23)cc1 | -0.3 | 2.3% | 16 | . | . | .
59 | Cc1ccnc(SCC(=O)NC2CC2)n1 | 0.5 | -1.0% | -4 | -8 | 2 | 5.4
60 | NS(=O)(=O)c1ccc(Nc2nc(-c3ccc(F)cc3)cs2)cc1 | 0.6 | -1.2% | -5 | -11 | -2 | -1.9

(listing goes on)
No. | smiles | TRPML1 agonist | PINK1 expr mod | TRPML1 inh | Six1-Eya2 inh | D2 PAM | D2 agonist
61 | Cc1ccc(C(=O)COC(=O)c2cc(=O)[nH]c3ccccc23)cc1 | 3.0 | -1.7% | 3 | -9 | 1 | -5.4
62 | C=CCC(NCCCO)c1cccc(OC)c1OC (stereo unspecified) | -1.0 | 0.6% | 8 | -2 | 5 | -2.3
63 | COc1ccc(NS(=O)(=O)c2cccc(C(=O)NC3CCN(Cc4ccccc4)CC3)c2)cc1 | 0.5 | -1.1% | -3 | -1 | -24 | -0.7
64 | Cc1nnc(SCc2nc(-c3ccc(Cl)cc3)no2)n1-c1ccc(F)cc1 | 0.7 | 1.7% | 31 | . | . | .
65 | Cc1csc2nc(O)c(C(=O)NCCCN3CCCC3=O)c(=O)n12 | 0.4 | 1.9% | 4 | 9 | -3 | 2.3
66 | Cc1ccc(CN(C(=O)COc2cccc(Cl)c2)c2ccccn2)o1 | -0.2 | 1.0% | 6 | . | . | .

Part of the list above, with one line to a screen.
#34 CC(=O)/C(N)=N/Nc1cccc(Cl)c1
#35 COc1ccc(Cl)cc1NC(=S)N(Cc1ccc(C(=O)O)cc1)Cc1ccc(OC)c(OC)c1
#36 Fc1cccc2sc(Nc3nnc(-c4ccccc4)o3)nc12

compound no.	34	35	36
TRPML1 agonist	-0.2	0.3	0.0
PINK1 expr mod	1.7%	1.9%	4.0%
TRPML1 inh	-22	11	2
Six1-Eya2 inh	-21	5	-5
D2 PAM	?	-2	-22
D2 agonist	?	1.9	-5.5

Screens from PubChem.
